# Compound activity: PubChem, National Center for Advancing Translational Sciences (NCATS)
# gsp ag – activates gsp, the McCune-Albright syndrome mutation; gsp mutant cells, cAMP HTRF, 30 min; control for the full effect not named in the record; Potency, µM (highest dose often 76.9 µM), for the others: at the highest dose activation (cAMP increase), usual class: activators; 0.13% of 340,000 active; AID 624287; active = well fitted activation curve with a large enough effect; inconclusive = small, poorly fitted or top-dose-only effect, or another doubt; inactive = no such curve, though single readings can be large or run the other way; cell line not stated here;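 note: phosphodiesterase inhibitor Ro 20-1724 added with compounds to block cAMP breakdown; potency is the fitted concentration of half-maximal effect; nearly all actives have a fitted effect of over 60% in size; about a fifth of the inactives were tested at one dose only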
#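 Cells stably selected in G418 were plated at 2000/well, grown 16-24 hr, then given compounds in DMSO with the PDE inhibitor […] (300 uM solution added) for 30 min at 37C; cAMP was read by HTRF.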
# Sfp PPTase inh – Sfp phosphopantetheinyl transferase inhibition. Q9F4F7. Biochemical Sfp PPTase activity, qHTS. Potency, µM, for inactives: max response, negative = inhibition, usual class: inhibitors. 3.5% of 310,000 active; active = well fitted inhibition curve with a large enough effect; inconclusive = small, poorly fitted or top-dose-only effect, or another doubt; inactive = no such curve, though single readings can be large or run the other way;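 note: the enzyme is Sfp with the accession as filed and its product quenches rhodamine fluorescence; potency is the fitted concentration of half-maximal effect; 0% = enzyme reaction without inhibitor and -100% = no enzyme wells; top concentration of the series not given in the record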
#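 Compounds were incubated with enzyme (final 15 nM) for 15 min at room temperature before substrate addition started the reaction. Fluorescence at 525 nm excitation, 598 nm emission was recorded immediately and after 30 minutes.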
# Menin-MLL FL inh – displaces fluorescein MLL peptide from human menin; Fluorescence polarization, fluorescein-MLL peptide displacement from menin; FP activity change, % at 61.4 µM; 290,000 tested, under 10 active; inconclusive = falling polarisation curve, or a change in total fluorescence; inactive = total fluorescence flat and polarisation flat or rising; no compound was filed as active; the % refers to the polarisation; negative = inhibition;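 note: % of control where 0% means no effect; inhibitors lower the polarisation; unlabelled MLL peptide was the positive control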
# PINK1 expr mod – changes PINK1 expression | 0.2% of 410,000 active | Potency, µM (top dose mostly 76.6 µM), for inactives: top-dose activation (PINK1 increase), actives largely listed as activators | PINK1 immunofluorescence, high-content cytometry, 24 h; active = well fitted activation curve with a large enough effect; inconclusive = small, poorly fitted or top-dose-only effect; inactive = flat fitted curve, though single readings scatter; cell line not stated here;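 note: potency is the fitted concentration of half-maximal effect; % of control where 0% means no effect; nearly all actives have a fitted effect of over 65% in size; a mitochondrial uncoupler was the plate control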
#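 Stable cell line, 250 cells/well, 12 h attachment; compounds pinned at 5 concentrations, 24 h; CCCP control. Fixed with nuclear dye, primary antibodies 12 h at 10 degrees C, secondary plus cell stain; laser-scanning cytometer read.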
# gsp antagonist – gsp mutant antagonism. gsp-mutant cells, cAMP HTRF, 30 min; control for the full effect not named in the record. Potency, µM (highest dose often 76.9 µM), for inactives: at the highest dose activity change, negative = inhibition, hits mostly inhibitors. 0.4% of 340,000 active. AID 624288; active = falling curve of any shape with a large fitted effect; inconclusive = falling curve, mostly with a smaller effect; inactive = flat or rising curve; cell line not stated here;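 note: intracellular cAMP measured with PDE inhibitor Ro 20-1724 present during compound exposure; potency is the fitted concentration of half-maximal effect; % is set by controls: 0 for no effect and ±100 for the full control effect; nearly all actives have a fitted effect of over 65% in size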
#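 HTRF cAMP measurement after 30 min RT detection following 30 min, 37C compound treatment alongside […] (added as 300 uM solution) in G418-selected cells seeded at 2000/well and grown 16–24 h.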
# ClpP mod – qHTS Assay for Activators of ClpP. ATP-dependent Clp protease proteolytic subunit (Bacillus subtilis (strain 168)), P80244. purified B. subtilis ClpP, FRET peptide cleavage, 20 min. Potency, µM (highest dose often 57.5 µM), for inactives: at the top dose activity change, negative = active. 1.9% of 340,000 active. AID 651965, 2013; active = well fitted falling curve with a large enough effect; inconclusive = small, poorly fitted or top-dose-only effect; inactive = no such curve, though single readings can be large or run the other way; note: potency is the fitted concentration of half-maximal effect; the source files actives as falling curves though it sought activators and does not explain the sign; nearly all actives have a fitted effect of over 65% in size; many hits overshoot -100%
# Target sequence (P80244 whole entry, looked up): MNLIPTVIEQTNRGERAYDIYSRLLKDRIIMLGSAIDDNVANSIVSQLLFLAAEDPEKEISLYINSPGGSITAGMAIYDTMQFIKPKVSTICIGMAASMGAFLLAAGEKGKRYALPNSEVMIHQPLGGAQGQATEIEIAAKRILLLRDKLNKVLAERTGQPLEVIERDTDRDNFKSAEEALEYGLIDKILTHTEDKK
#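 ClpP 10 microg/mL final, pH 8 Tris/KCl buffer with BSA, glycerol, Tween-20; compound pinned in; FRET-FV substrate; RT 20 min; Ex320/Em430; ΔFRET vs ADEP 5.8 microM, DMSO, no enzyme.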
# D2 agonist – agonists of human D2 dopamine receptor (beta-arrestin) | DiscoveRx PathHunter D2 beta-arrestin, luminescence, 90 min; 100% = 57 uM dopamine signal | activation, % (no concentration beside the values) | AID 624465 | 0.084% of 360,000 active; in the data active = activation above about 40%; inconclusive = about 15% to 40%; inactive = below about 15%; note: compound concentration not given in the record; the text of the record calls up to 30% inactive
# Target sequence (P14416 whole entry, looked up): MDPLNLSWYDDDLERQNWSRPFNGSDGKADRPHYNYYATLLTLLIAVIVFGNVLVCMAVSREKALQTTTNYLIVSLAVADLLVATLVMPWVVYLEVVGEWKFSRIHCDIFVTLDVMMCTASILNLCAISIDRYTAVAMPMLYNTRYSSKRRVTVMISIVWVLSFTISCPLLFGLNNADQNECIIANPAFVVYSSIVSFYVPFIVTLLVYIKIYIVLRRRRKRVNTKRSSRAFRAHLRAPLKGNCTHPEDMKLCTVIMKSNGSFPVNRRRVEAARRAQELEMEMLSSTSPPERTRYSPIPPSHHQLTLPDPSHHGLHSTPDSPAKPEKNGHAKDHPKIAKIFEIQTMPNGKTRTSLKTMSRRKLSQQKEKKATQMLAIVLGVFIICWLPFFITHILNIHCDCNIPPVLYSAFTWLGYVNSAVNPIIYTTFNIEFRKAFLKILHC
#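 DiscoveRx PathHunter D2 beta-arrestin cells (2,100/well) attached overnight, then compound-stimulated 90 min at 37 C in HBSS/10 mM HEPES/0.1% Tween-20 buffer; beta-galactosidase complementation read by luminescence after 1 h at ambient temperature. Dopamine 57 uM final (EC100) as control.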
# * = called active by the depositor; u = inconclusive; x = not tested or not shown; & = joins results of further samples; [ ] = dose if it differs, or a comment.
# Results follow in this order: PINK1 expr mod, gsp antagonist, ClpP mod, Menin-MLL FL inh, D2 agonist, gsp ag, Sfp PPTase inh
O=C(O)C1CCCN1C(=O)Nc1ccc(Cl)cc1 (stereo unspecified)
 : 0.0%, 11%, 0.1%, -2.5, -1.5, -12%, -9%
CC(=O)N(CC(=O)Nc1nn(-c2ccccc2)nc1C(N)=O)Cc1ccccc1
 : 2.1%, -26%, u, 0.6, -2.6, 6%, 13%
CS(=O)(=O)N1CCN(c2ncccn2)CC1
 : -3.2%, 11%, -8.8%, 0.0, -0.1, u, -3%
Cc1nc2ccccc2c2oc(C(=O)N3CCN(c4ccc([N+](=O)[O-])cc4)CC3)cc12
 : 2.5%, 3%, 1.1%, -0.2, 1.7, 21%, -9%
CC1(O)c2ccccc2C(=O)N1Cc1ccccc1 (stereo unspecified)
 : -5.0%[38.3 µM], -15%, -1.3%, 3.2, -1.5, 2%, 7%
O=C(CN(C(=O)CNS(=O)(=O)c1ccccc1)c1ccc(F)cc1)NCc1ccco1
 : 2.9%, x, x, 0.0, -4.9, -5%[15.4 µM], 10%
c1cnc(-c2noc(CN3CCN(C4CCCC4)CC3)n2)cn1
 : 0.0%, 13%, 0.6%, -0.7, -1.8, 1%, -7%
CC(=O)Nc1ccc(S(=O)(=O)Nc2cccc3cccnc23)cc1
 : 0.7%, -33%, x, -0.9&-3.3, -3.9, 3%[15.4 µM], -7%&17%
CC1CCN(C(=O)CSc2ccc(-c3ccc4c(c3)OCCO4)nn2)CC1
 : -1.8%, -20%, x, x, -0.5, -1%, -4%
COCCOC(=O)C1=C(C)NC(=S)NC1c1cccs1 (stereo unspecified)
 : -1.8%, 8%, -0.5%, -0.8, -2.7, -5%, 11%
COc1ccc(/C=C2/SC(c3ccc(C)cc3)=NC2=O)cc1OC
 : 1.1%, -6%, 1.8%, u, -3.8, 15%, 32µM*
CCCC(C)c1oc(=O)cc(O)c1C (stereo unspecified)
 : -0.5%, -2%, -1.3%, x, -2.4, x, x
Cc1onc(-c2ccccc2Cl)c1C(=O)NCCN1CCOCC1
 : -0.9%, -5%, -3.3%, 0.5, -3.4, 0%, -12%
CCOC(=O)c1sc(N2C(=O)C(O)=C(C(=O)c3ccco3)C2c2cccc([N+](=O)[O-])c2)nc1C (stereo unspecified)
 : -1.0%, u, -1.8%, x, -2.5, u, u
Cc1nn(Cc2ccccc2Cl)c(C)c1C(=O)N(C)CC(=O)Nc1cccc(F)c1
 : 2.3%, -15%, -1.1%, x, -0.8, -12%, x
COc1ccccc1N1Cc2ccc(OC)c(OC)c2C1=O
 : 2.9%, 2%, x, 0.4, -1.2, 0%, 10%
COCC(C)NC(=O)Cc1ccc(Cl)cc1 (stereo unspecified)
 : -0.7%, -3%, x, 0.0, -19, 43%[15.4 µM], 7%
Cc1scc(C(=O)NCc2ccco2)c1-c1ccccc1
 : -3.2%[38.3 µM], -13%, 0.1%, 19, 0.5, 4%, u
OCCC1CN(Cc2cccn2-c2ncccn2)CCN1Cc1ccccc1 (stereo unspecified)
 : 1.0%, 6%, x, -8.1, -0.5, -1%, -3%
COc1ccc([C@H]2C[C@H](n3cc(C4CC4)nn3)[C@@H](O)CN2CC2CCCCC2)cc1
 : u, x, -1.9%, x, -2.4, -59%[inhibitor], x
CCC(C)NC(=O)CN(c1cc(Cl)ccc1OC)S(C)(=O)=O (stereo unspecified)
 : 1.1%, 18%, 0.3%, 0.2, -1.0, -33%[inhibitor], 17%
Cc1cn([C@H]2C[C@H](O)[C@@H](/C=C/C(=O)NCc3ccco3)O2)c(=O)[nH]c1=O
 : 0.3%, x, 1.2%, x, 3.3, x, x
CCOC(=O)CNC(=O)CSc1nnc(Cn2c(=O)sc3ccccc32)n1-c1ccccc1C
 : 4.8%[38.3 µM], -3%, 0.1%, 3.2, -2.8, -14%, 11%
COc1cc2ccccc2nn1
 : -0.2%, 3%, x, 3.0, -2.2, -2%[15.4 µM], 16%
COC(=O)c1ccc(C2C(C(=O)c3ccco3)=C(O)C(=O)N2c2cc(C)on2)cc1 (stereo unspecified)
 : 0.8%, -7%, -0.6%, x, 1.4, u, 8%
CCOC(=O)C1=C(C)N=C2SC(C)C(=O)N2C1c1ccc(C(=O)OC)cc1 (stereo unspecified)
 : -1.2%, -16%, -0.2%, 0.1, -3.5, -2%, 15%
CCc1nnc(NC(=O)C2CCCN(c3nc(C)cc(C)n3)C2)s1 (stereo unspecified)
 : -0.8%[38.3 µM], 6%, -8.4%, 0.0, -1.6, u, 9%
CCOC(=O)c1cccc(NC(=O)CSc2nnc(-c3ccoc3C)n2CCOC)c1
 : -1.5%, 10%, -1.8%, 4.2, -3.6, 14%, 1%
O=C(O)c1cc(=O)c2cc(Cl)ccc2o1
 : -0.4%, -17%, -4.9%, 4.6, -0.8, u, 12%
CCN(CC(=O)Nc1ccccc1C(F)(F)F)C(=O)CCS(=O)(=O)c1ccc(C)cc1
 : 0.8%, 0%, u, x, -4.4, -63%[inhibitor], x
CC(=O)NC12CC3CC(C1)CC(C(=O)Nc1nc4ccc(S(C)(=O)=O)cc4s1)(C3)C2
 : 0.1%, 8%, 0.6%, x, -0.9, 28%, 6%
COc1cccc(N2CC(C(=O)Nc3ccc(C(=O)OC(C)C)cc3)CC2=O)c1 (stereo unspecified)
 : 0.3%, -2%, -2.2%, 2.8, 3.7, 0%, 21%
CC1CC(C)CN(c2cc(N(C)CCO)c([N+](=O)[O-])c3nonc23)C1 (stereo unspecified)
 : 0.7%, -19%, 0.1%, 11, -5.2, -2%[15.4 µM], -15%
Cc1ccc(N2C(=O)C3C4CC(=O)C(c5ccccc54)C3C2=O)cc1 (stereo unspecified)
 : -3.6%, 4%, 0.8%, -0.6, -3.1, 7%, 0%
Cc1nc([N+](=O)[O-])cn1CCC#N
 : 0.0%, -8%, x, 2.4, 7.2, 32%, 2%
CN1CC(=O)NC1=NC(=O)c1cc(F)c(F)cc1Cl
 : 1.7%, -5%, -0.7%, 0.4, -1.7, 3%, -21%
COc1ccc(NC(=O)N(CCC(C)C)C(C)c2ccccn2)c(OC)c1 (stereo unspecified)
 : 2.3%, -13%, 0.2%, 0.6, -4.7, -53%[inhibitor], -10%
Cc1ccc(CCSc2ccc(F)cc2)cn1
 : -0.5%, -6%, x, 1.7, -23, 10%[15.4 µM], -1%
COc1cccc(N(CC(=O)N2CCCCCC2)S(C)(=O)=O)c1
 : 2.8%, 7%, 0.1%, -0.1, -1.8, -4%, -3%
COc1ccccc1OCCNC(=O)c1ccc(C)c(S(=O)(=O)N2CCOCC2)c1
 : 1.3%, -29%, -2.3%, x, -4.4, 8%, x
Cc1ccc(N(C(C)C(=O)Nc2ccc(S(=O)(=O)N3CCOCC3)cc2)S(C)(=O)=O)cc1 (stereo unspecified)
 : 2.8%, 3%[15.4 µM], -5.4%, -1.3, -1.3, 9%, 11%
Cc1cc(C)cc(N(C(=O)C(F)(F)F)C(C(=O)NC2CCCCC2)c2cccs2)c1 (stereo unspecified)
 : x, -14%, 0.0%, 1.6, 1.2, 14%, 18%
Cc1ccc(CN(C)C(=O)c2ccc(S(=O)(=O)N(C)c3ccccc3)cc2)o1
 : 0.5%, -5%, x, x, 0.9, 0%[15.4 µM], x
O=C(CCCN1C(=O)[C@H]2CC=CC[C@H]2C1=O)NCc1nc(-c2ccccc2)no1
 : -0.8%, 10%, 1.4%, x, 0.2, 1%, 17%
Cc1cccc(C(=O)NN/C=C/C(=O)c2ccccc2)c1
 : 1.7%, -4%, -0.2%, 7.0, -5.8, -4%[15.4 µM], 15%
CCOC(=O)C1=CCCN(S(=O)(=O)c2ccc(C)cc2)C1
 : 3.4%, x, -6.2%, x, -2.7, x, x
CN(Cc1cccnc1)C(=O)c1cc(COc2ccc3c(c2)CCCC3)on1
 : -0.1%, u, -3.9%, 0.6, 3.2, -44%[inhibitor], -20%
CCNC(=O)CC1C(=O)N(c2ccc(F)cc2)C(=O)N1Cc1cccs1 (stereo unspecified)
 : 3.6%, 12%, 0.1%, -0.4, -4.2, 13%, 29%
Cc1cccc(NC(=O)c2ccc(S(=O)(=O)N3CCCC3)cc2)c1C
 : 0.5%, -4%, x, 0.2, -3.0, -6%, 6%
CC(=O)c1ccc(-c2ccc(C(=O)N3CCN(c4ccc(F)cc4)CC3)o2)cc1
 : 2.5%, 28µM*, -5.5%, 3.1, u, 0%, -11%
Cc1ccc2oc3nc(C)c(C(=O)O)cc3c(=O)c2c1
 : 1.2%, -1%, 28µM*, 2.3, -3.6, -17%, 6%
O=C(COc1ccccc1Cl)N1CCN(c2ccc([N+](=O)[O-])c(N3CCOCC3)c2)CC1
 : -4.0%[38.3 µM], -27%, 2.5%, -0.7, 1.5, 20%, -11%
O=C(Nc1ccc2c(c1)OCCO2)C(=S)NCc1ccccc1
 : 0.1%, 6%, -0.6%, 4.2, -0.1, 0%[15.4 µM], -1%
O=C(CN1CCOCC1)Nc1ncc(Cc2ccccc2Cl)s1
 : u, 4%, 0.0%, 0.3, -0.6, -2%, 7%
COc1ccc(Cl)cc1NC(=O)c1ocnc1C
 : u, -11%, -0.4%, 1.9, -2.1, 2%, -3%
CCc1ccccc1NC(=O)CSc1nc2ccccc2nc1N1CCOCC1
 : 1.4%, -10%, 11%, 0.0, 1.1, 19%, -11%
COC(=O)c1ccc2[nH]ccc2c1
 : 2.0%, 9%, -2.1%, -1.3, -0.9, x, 14%
O=C(CSCc1c(F)cccc1Cl)Nc1ccccc1C(=O)N1CCOCC1
 : 0.7%, 8%, 2.6%, -2.0, -4.3, 0%[15.4 µM], 25%
NC(=O)NC(CC(=O)NNC(=O)c1cccs1)c1ccc(Cl)cc1 (stereo unspecified)
 : 1.0%, 13%, 0.8%, x, -1.5, 4%[15.4 µM], x
O=c1c(Cc2ccc(F)cc2)c(O)ccn1CCCN1CCOCC1
 : -1.8%, -2%, -0.8%, 0.7, -3.1, 14%, 8%
O=C(c1cc(C2CC2)on1)N1CCOCC1
 : 2.0%, 4%, 0.3%, 0.5, -0.5, u, 3%
CCOC(=O)[C@H]1[C@H]2COc3ccc(Cl)cc3[C@@H]2N2C(=O)[C@H](C)NC(=O)[C@@]12C
 : 1.6%, -7%, -15%, x, -2.4, x, x
